Screens from PubChem.
GIV-Gai inh: blocks GIV peptide binding to rat Galpha-i3 | P08753 | Galpha-i3/FITC-GIV peptide fluorescence polarization, 90 min; stronger effect = lower value; scaled: aluminum fluoride 0%, vehicle 100% | percent of control (FP), % (concentration not given with the values) | 210,000 compounds, 0.42% hits;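 active = replicate mean at 85% of control or lower, very high polarization wells dropped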;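 note: wells of about 15 µL received 100 nL stock; the first replicate is given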
Target sequence (P08753 whole entry, looked up): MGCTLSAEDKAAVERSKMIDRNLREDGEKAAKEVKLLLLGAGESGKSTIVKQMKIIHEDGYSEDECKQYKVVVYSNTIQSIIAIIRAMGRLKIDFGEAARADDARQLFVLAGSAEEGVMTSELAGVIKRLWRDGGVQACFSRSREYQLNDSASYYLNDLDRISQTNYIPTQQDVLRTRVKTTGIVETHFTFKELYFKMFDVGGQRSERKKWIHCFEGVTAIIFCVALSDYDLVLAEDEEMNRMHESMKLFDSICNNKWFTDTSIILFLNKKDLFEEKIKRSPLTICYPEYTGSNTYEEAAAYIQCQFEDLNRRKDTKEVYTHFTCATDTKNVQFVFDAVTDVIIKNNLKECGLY
HCMV NEC inh: inhibitors of HCMV UL50-UL53 nuclear egress complex interaction; 190,000 compounds, 0.15% hits; inhibition, % (test concentration not listed); HTRF UL50-UL53 interaction, normalized percent inhibition;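 active = both replicates at 50% or more, plus weaker picks with an unusually low signal ratio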;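 note: stock transfer was 100 nL into about 20 µL; 0% = negative control wells and 100% = wells with untagged competitor protein; inactives centre near -12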
Sa growth inh: S. aureus growth inhibition; S. aureus RN4220 growth, OD600, 20 h, 42 °C; stronger effect = lower value; relative growth, % (concentration not given with the values); 170,000 compounds, 0.53% hits; AID 720641;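 active = growth at 42 °C up to 50% and 20 or more points under that at 30 °C, or under 10% at both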;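 note: 300 nL library stock went into each well; scaled to the means of positive and negative controls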
Sa growth inh second temp: second read-out of Sa growth inh, no call of its own (marks repeat the call); relative growth, %; measured here: growth at 30 °C;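 optical density after 20 h as mean of two plates; 100% = untreated growth and lower means inhibition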
Numbers without * were called inactive; . = no result given; & = joins results of further samples.

nr	mol	HCMV NEC inh	GIV-Gai inh	Sa growth inh second temp	Sa growth inh
1	CC(C)(C)c1cc(C(=O)N2CCN(c3ccc(C(F)(F)F)cn3)CC2)n(Cc2ccc(F)cc2)n1	4	104	86	99
2	Cc1cc(C(=O)Nc2cccc(Cl)c2)no1	10	105	.	.
3	Cc1ccc(OCc2ccc(C(=O)N(C)C3CCCCC3)o2)cc1C	-21	.	88	96
4	Cc1ccccc1C(=O)NCCC(C)C	-13	.	89	110
5	COc1ccccc1CNc1ccccc1F	-16	100	106	107
6	Cc1cc(C)n(CC(=O)Nc2cccc(Oc3ccccc3)c2)c(=O)c1-c1nc(-c2ccc(Cl)cc2)no1	-2	106	.	.
7	CCCCNC(=O)c1ccc2c(c1)NC(=O)C(C)N2 (configuration not stated)	-76	189	89	83
8	O=C(c1cc2nc(C3CC3)cc(C(F)(F)F)n2n1)N1CCCC1c1cccc(F)c1 (configuration not stated)	-16	107	.	.
9	COc1cccc(C(=O)c2sc(Nc3ccc(C)cc3C)c(S(=O)(=O)c3ccccc3)c2N)c1	-22	102	83	105
10	CC(C)(C)C(=O)N1CCN(c2nc3c(F)cccc3s2)CC1	.	101	93	105
11	CCOCCOC(=O)C1=C(C)NC2=C(C(=O)CC(c3ccc(OC)cc3)C2)C1c1cc(Cl)c(O)c(OC)c1 (configuration not stated)	-17	106	.	.
12	Cc1ccc(OCCCn2c(C3CC(=O)N(c4cccc(Cl)c4)C3)nc3ccccc32)c(C)c1 (configuration not stated)	-20	105	85	109
13	O=C1OC(c2ccccc2F)=N/C1=C\c1cccc(C(F)(F)F)c1	.	99	92	111
14	O=C(NCCC1=CCCCC1)C1CCCN(C(=O)N2CCOc3ccccc32)C1 (configuration not stated)	-17	100	82	101
15	CCOC(=O)c1c(NC(=O)COc2ccc(Cl)cc2)sc(C(=O)Nc2ccc(OC)cc2)c1C	-25	99	.	.
16	COc1ccc(CCNC(=O)c2ccc3c(c2)CCN3S(=O)(=O)c2ccccc2)cc1	7	107	99	118
17	O=C(Cn1ncc2c(=O)oc3ccccc3c21)N1CCN(Cc2ccccc2)CC1	6	111	95	96
18	COc1ccc(NC(=O)CC(=O)CSc2ccccc2)cc1	-4	.	84	73
19	Cc1ccccc1CNC(=O)CN1C(=O)CSc2ccc(S(=O)(=O)N(C)C)cc21	.	99	85	90
20	COC(CN=Cc1c(O)[nH]c(=O)[nH]c1=O)OC	-9	.	89	84

Of the compounds above, these have a tert-butyl group:
nr	mol	HCMV NEC inh	GIV-Gai inh	Sa growth inh second temp	Sa growth inh
1	CC(C)(C)c1cc(C(=O)N2CCN(c3ccc(C(F)(F)F)cn3)CC2)n(Cc2ccc(F)cc2)n1	4	104	86	99
10	CC(C)(C)C(=O)N1CCN(c2nc3c(F)cccc3s2)CC1	.	101	93	105

(more compounds)
nr	mol	HCMV NEC inh	GIV-Gai inh	Sa growth inh second temp	Sa growth inh
21	O=C(C1CCN(c2ncnc3c2sc2cccc(F)c23)CC1)N1CCCC1	14&-10	104&107	84	102
22	CCCNS(=O)(=O)c1cccc(C(=O)NCCc2ccccc2)c1	-15	.	84	125
23	Cc1ccc(Cl)cc1NC(=O)CCC(=O)N1CC(C)Sc2ccccc21 (configuration not stated)	.	105	112	95
24	O=C(CCC(=O)N1CCc2cc(S(=O)(=O)NC3CCCCC3)ccc21)N1CCCCC1	-34	97	.	.
25	CC(C)CC(=O)NN	-6	.	89	84
26	Cc1ccc(C(=O)N2CCOCC2)cc1	8	.	97	76
27	N#CC(C#N)=Cc1c(-c2ccccc2)nc2n1CCS2	-33	97	71	94
28	NC1=NC2(CCCCC2)N(c2ccc(F)cc2)C(N)=N1	-25	99	72	99
29	CCOC(=O)c1noc2ncnc(Nc3ccc(F)cc3)c12	-21	104	.	.
30	CN(CCc1ccccn1)Cc1ccccc1	-3	101	76	103
31	COc1cccc(-n2c(Cc3cc(=O)[nH]c(=O)[nH]3)nnc2SCC(N)=O)c1	-35	97	87	89
32	COc1ccc(-c2cc3ccc(O)c(CN4CCCC(C)C4)c3oc2=O)cc1 (configuration not stated)	.	112	104	110
33	O=S(=O)(Nc1ccc2oc3c(c2c1)CCCC3)c1cccc2cccnc12	-37	99	92	99
34	Cc1ccc(Cn2c3ccccc3c3cnn(CC(=O)N4CCCC4)c(=O)c32)cc1	-19	103	.	.
35	CCc1cccc(NC(=O)c2c(C)oc3nc(C)nc(N4CCCC4)c23)c1	.	103	92	98
36	Cc1ccc(Cl)cc1NC(=O)C1CCN(S(=O)(=O)c2c(C)[nH]c(C)c2C(=O)N2CCCC2)CC1	7	97	.	.
37	Cc1ccc(C(=O)CNC(=O)C2Cc3ccccc3C(=O)O2)cc1 (configuration not stated)	-8	100	101	118
38	COc1ccc(C(=O)c2cn(Cc3ccccc3)c3ccccc3c2=O)cc1OC	-5	97	82	87
39	CCC1C(=O)N=C(SCC(=O)Nc2ncccn2)NC1=O (configuration not stated)	-5	106	86	84
40	CCOC(=O)c1cnc(COc2ccc(OC)cc2)[nH]c1=O	4	103	89	95
41	CCc1ccc(CNC(=O)c2ccc3c(c2)N=C(C)c2cc(C)ccc2S3)cc1	10	102	102	117
42	COc1cccc(-c2noc(CCC(=O)N(C)C)n2)c1	-1	103	96	100
43	CCc1cccc(NS(=O)(=O)c2ccc3c(c2)CC(C)N3C(=O)C2CC2)c1 (configuration not stated)	.	103	117	112
44	C=CCn1c(C)nnc1SCc1cc(=O)oc2cc(NC(C)=O)ccc12	-61	.	83	114
45	Cc1ccc(CS(=O)(=O)c2ncc(Cl)c(C(=O)Nc3nc4ccc(F)cc4s3)n2)cc1	-21	99	82	92
46	O=C(CS(=O)(=O)c1nc(-c2ccccc2)cn1-c1ccc(Cl)cc1)Nc1ccccc1	.	102	90	136
47	CCCCc1ccc(C(=O)Nc2ccc3nc(N(CC)CC)cc(C)c3c2)cc1	0	110	101	108
48	CCOC(=O)c1ccc(NC(=NCc2ccncc2)NC(=O)c2cc(OC)c(OC)c(OC)c2)cc1	16	103	.	.
49	O=C(O)C1CCN(c2ncnc3c2sc2cccc(F)c23)CC1	-15	98	52	98
50	COc1ccc(N2C(=O)CS(=O)(=O)C23C(=O)N(Cc2ccccc2)c2ccccc23)cc1 (configuration not stated)	.	100	87	86
51	N#Cc1ccc(COC(=O)C2=NNC(=O)CC2)cc1	-13	.	87	81
52	COc1ccc(-c2noc(CC(=O)NCCC(C)C)n2)cc1	.	104	87	79
53	C/C(=N\NC(=O)c1cc(-c2ccccc2Cl)n[nH]1)c1ccco1	-30	101	59	76
54	CCOC(=O)c1cc2c(oc1=O)c(I)cc1oc3c(c12)CCCC3	.	98	77	94
55	COc1ccccc1N1CCN(c2ccc(SCC(=O)Nc3cc(C)ccc3C)nn2)CC1	-33	108	.	.
56	CC(O)CNc1nc2ccccc2n1CC(=O)N(Cc1ccccc1)C(C)C (configuration not stated)	-5	.	93	81
57	COc1ccc(S(=O)(=O)NCCS(=O)(=O)N2CCN(c3ccccc3)CC2)cc1OC	.	104	93	106
58	COc1ccc(-c2csc3ncnc(NCCSCc4ccco4)c23)cc1	-15	.	67	67
59	CCc1ccc(CNC(=S)Nc2ccc3nc(N4CCCC4)cc(C)c3c2)cc1	.	96	19	103
60	O=C1CSC(c2ccccc2)N1C1CC1 (configuration not stated)	-15	.	95	105

Some of the entries so far, with each value named:
52) COc1ccc(-c2noc(CC(=O)NCCC(C)C)n2)cc1
  HCMV NEC inh: .
  GIV-Gai inh: 104
  Sa growth inh second temp: 87
  Sa growth inh: 79

60) O=C1CSC(c2ccccc2)N1C1CC1 (configuration not stated)
  HCMV NEC inh: -15
  GIV-Gai inh: .
  Sa growth inh second temp: 95
  Sa growth inh: 105

56) CC(O)CNc1nc2ccccc2n1CC(=O)N(Cc1ccccc1)C(C)C (configuration not stated)
  HCMV NEC inh: -5
  GIV-Gai inh: .
  Sa growth inh second temp: 93
  Sa growth inh: 81

54) CCOC(=O)c1cc2c(oc1=O)c(I)cc1oc3c(c12)CCCC3
  HCMV NEC inh: .
  GIV-Gai inh: 98
  Sa growth inh second temp: 77
  Sa growth inh: 94

Entries of single compounds as entered above.
C/C(=N\NC(=O)c1cc(-c2ccccc2Cl)n[nH]1)c1ccco1 is listed with HCMV NEC inh = -30; GIV-Gai inh = 101; Sa growth inh second temp = 59; Sa growth inh = 76
COc1ccc(-c2csc3ncnc(NCCSCc4ccco4)c23)cc1 is listed with HCMV NEC inh = -15; GIV-Gai inh = .; Sa growth inh second temp = 67; Sa growth inh = 67
CCc1ccc(CNC(=S)Nc2ccc3nc(N4CCCC4)cc(C)c3c2)cc1 is listed with HCMV NEC inh = .; GIV-Gai inh = 96; Sa growth inh second temp = 19; Sa growth inh = 103

Following part:
nr	mol	HCMV NEC inh	GIV-Gai inh	Sa growth inh second temp	Sa growth inh
61	Cc1ccc(NC(=O)c2ccc(-n3c(C)nnc3C)cc2)cc1F	.	107	100	101
62	CCCCN(CC)CCNC(=O)C1CCCN(c2ncnc3onc(C)c23)C1 (configuration not stated)	.	101	89	82
63	Cc1nn(CC(=O)N2CCCCC2)c(=O)c2c(-n3cccc3)n(-c3ccccc3)nc12	-2	104	.	.
64	Cc1cc(S(=O)(=O)Nc2ccsc2C(N)=O)c(Cl)cc1Cl	-18	97	68	98
65	CCC1(C)NC(=S)N(c2ccccc2)N1 (configuration not stated)	.	99	76	95
66	Cc1ccc(CNCc2ccccc2Cl)s1	-18	107	90	102
67	COc1ccccc1N1CCN(C(CNC(=O)C(=O)NCCc2ccccc2)c2cccnc2)CC1 (configuration not stated)	-21	106	85	100
68	O=C(Nc1ccccc1C(=O)NC1CCCCNC1=O)c1cccc(C(F)(F)F)c1 (configuration not stated)	-14	103	88	84
69	O=C(O)c1ccc(CSc2nc3ccccc3[nH]2)cc1	-9	.	97	104
70	Cc1ccc(-c2c(C)n3c4c(=O)n(C)c(=O)n(C)c4nc3n2-c2cccc(O)c2)cc1	7	111	103	100
71	O=C(c1cccnc1)N1N=C(C(F)(F)F)CC1(O)c1ccncc1 (configuration not stated)	-14	.	83	91
72	Cc1ccccc1/C=N/N=C1/NC(=O)CCS1	-8	102	94	103
73	O=S1(=O)CCN2N=C(C3CC3)SC2=N1	6	.	97	96
74	CCc1c(C)nn2c1n1nc(C)c(CC)c1n1nc(C)c(CC)c21	8	104	98	105
75	Cc1cc(C(=O)Cn2cnc3ccc(Cl)cc3c2=O)c(C)n1CC1CCCO1 (configuration not stated)	20	.	89	100
76	CC(=O)N(CCCN1CCOCC1)Cc1ccncc1	5	101	82	91
77	Cc1c(C(=O)Nc2ccc(F)cc2F)sc2ncnc(N3CCC(C)CC3)c12	.	101	85	104
78	CCN(CC)C(=O)CSc1nnc(-c2ccco2)n1CC1CCCO1 (configuration not stated)	-3	101	94	114
79	CN1C(=O)COc2ccc(C(=O)n3ccnc3)cc21	-12	109	.	.
80	O=C(OCC1CCCO1)c1cnn2c(C(F)(F)F)cc(-c3ccc(F)cc3)nc12 (configuration not stated)	-26	105	.	.
81	Cc1cc2c(cc1S(=O)(=O)C(C)CC(=O)NC1CCC(C)CC1)OCC(=O)N2 (configuration not stated)	.	109	92	130
82	CCOC(=O)C1CCN(C(=O)c2cnn(-c3ccc(OC)cc3)c2C)CC1	-23	101	95	98
83	Cc1nn(-c2ccccc2)c(C)c1/C=N/n1c(=S)[nH]nc(C)c1=O	-10	98	81	92
84	CCSc1nc2sc3c(c2c(=O)n1-c1ccc(C)cc1)CCCC3	-47	102	87	94
